# TRPML1 ag – qHTS for Agonists of the Human Mucolipin Transient Receptor Potential 1 (TRPML1); Mucolipin-1 (Homo sapiens), Q9GZU1; activation, % (concentration not given with the values); 410,000 tested, 0.12% active; AID 624414, 2012; TRPML1-expressing cells, Ca2+ dye fluorescence, FDSS; host cell line not named in the record; reference of the full effect not given here; in the data active = activation above about 50%; inconclusive = about 30% to 50%; inactive = below about 30%; note: 0% is about no effect; the text of the record puts the active cut at 80%
#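 Cells: TRPML1-DL, 1X Tet inducer, ~16 h at 37 degrees C/5% CO2. Dye: ABD Ca8 no-wash + quencher, 45-90 min RT. Read: 10 s baseline, compound add, 110 s agonist phase; 54-4 EC80 (4uM final), 110 s antagonist phase.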
# D2 potentiator – Beta-Arrestin HTS for Positive Allosteric Modulators of the Human D2 Dopamine Receptor: Potentiators; DiscoveRx D2 beta-arrestin cells, luminescence, 90 min; 100% = 57 uM dopamine signal; D(2) dopamine receptor (Homo sapiens), P14416; potentiation, % (test concentration not listed); 360,000 tested, 0.23% active; active = potentiation of 50% or more; inconclusive = 30% to 50%; inactive = 30% or less;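 note: compound concentration not given in the record; tested on top of an EC20 dose of dopamine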
#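 PathHunter beta-arrestin assay in DiscoveRx D2 cells. Compounds were added with an EC20 of dopamine (50 nM final) for 90 min at 37 deg C. Luminescence was read 1 h after detection reagent, with 57 uM dopamine as the EC100 control.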
# Six1-Eya2 blk – qHTS Assay for Inhibitors of the Six1/Eya2 Interaction; AlphaScreen GST-Six1/His-Eya2 binding, biochemical; stronger effect = lower value; control for the full effect not named in the record; activity change, % (concentration not given with the values); Homeobox protein SIX1 (Homo sapiens) + Protein phosphatase EYA2 (Homo sapiens), …; 360,000 tested, 0.56% active; in the data active = activity change below about -65%; inconclusive = about -30% to -65%; inactive = above about -30%; note: % is set by controls: 0 for no effect and ±100 for the full control effect
# Target sequence (O00167 whole entry, looked up): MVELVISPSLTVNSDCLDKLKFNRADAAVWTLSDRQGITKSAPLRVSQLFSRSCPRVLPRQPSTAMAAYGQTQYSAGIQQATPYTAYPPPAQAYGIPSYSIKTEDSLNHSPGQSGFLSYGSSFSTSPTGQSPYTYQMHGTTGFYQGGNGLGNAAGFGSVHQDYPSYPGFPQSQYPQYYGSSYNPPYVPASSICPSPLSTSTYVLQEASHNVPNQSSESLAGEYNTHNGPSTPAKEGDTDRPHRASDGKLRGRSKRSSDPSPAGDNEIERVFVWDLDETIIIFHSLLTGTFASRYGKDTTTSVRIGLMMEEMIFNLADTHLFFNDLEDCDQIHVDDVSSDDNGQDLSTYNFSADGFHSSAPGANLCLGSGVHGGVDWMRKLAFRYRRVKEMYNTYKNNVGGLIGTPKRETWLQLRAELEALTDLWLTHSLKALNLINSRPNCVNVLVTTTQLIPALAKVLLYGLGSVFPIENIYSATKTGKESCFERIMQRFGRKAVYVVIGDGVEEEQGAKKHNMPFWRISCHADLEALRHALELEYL
# Target sequence (Q15475 whole entry, looked up): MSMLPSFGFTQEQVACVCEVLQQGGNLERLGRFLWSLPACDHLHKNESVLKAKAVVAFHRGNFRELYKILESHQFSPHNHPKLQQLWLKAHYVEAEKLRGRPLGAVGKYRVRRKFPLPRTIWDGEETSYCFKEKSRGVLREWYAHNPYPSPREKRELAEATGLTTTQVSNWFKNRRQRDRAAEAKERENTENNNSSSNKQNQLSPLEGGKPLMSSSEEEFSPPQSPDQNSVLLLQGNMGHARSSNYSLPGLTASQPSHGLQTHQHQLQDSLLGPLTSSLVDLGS
#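 GST-Six1 + His-Eya2 (5X stock: 250/500 nM); Tris pH 8.0, 300 mM NaCl, 0.05% BSA, 0.02% Tween 20; GSH donor/Ni acceptor beads; 1 h 37 °C dark; AlphaScreen readout.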
# D2 ag – Beta-Arrestin HTS for Positive Allosteric Modulators of the Human D2 Dopamine Receptor: Agonists; D(2) dopamine receptor (Homo sapiens), P14416; DiscoveRx PathHunter D2 beta-arrestin, luminescence, 90 min; 100% = 57 uM dopamine signal; activation, % (no concentration beside the values); 360,000 tested, 0.084% active; AID 624465, 2012; in the data active = activation above about 40%; inconclusive = about 15% to 40%; inactive = below about 15%; note: compound concentration not given in the record; the text of the record calls up to 30% inactive
#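 DiscoveRx PathHunter D2 beta-arrestin cells (2,100/well) attached overnight, then compound-stimulated 90 min at 37 C in HBSS/10 mM HEPES/0.1% Tween-20 buffer; beta-galactosidase complementation read by luminescence after 1 h at ambient temperature. Dopamine 57 uM final (EC100) as control.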
# PINK1 modulator – A Quantitative High throughput Screen to Identify Chemical Modulators of PINK1 Expression; PINK1 immunofluorescence, high-content cytometry, 24 h; Potency, µM (series often up to 76.6 µM), for the others: top-dose activation (PINK1 increase), most hits filed as activators; 410,000 tested, 0.2% active; AID 624263, 2012; active = well fitted activation curve with a large enough effect; inconclusive = small, poorly fitted or top-dose-only effect; inactive = flat fitted curve, though single readings scatter; cell line not stated here;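 note: potency is the fitted concentration of half-maximal effect; % of control where 0% means no effect; nearly all actives have a fitted effect of over 65% in size; a mitochondrial uncoupler was the plate control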
#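 Cells are seeded, rested 12 hours, then given compound at five concentrations or DMSO for 24 hours. After fixation, blocking and antibody staining, PINK1 amount and mitochondrial localization are scored; CCCP serves as control.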
# CtBP-E1A blk – qHTS Assay for Inhibitors of the CtBP/E1A Interaction | CtBP / adenovirus E1A interaction (AlphaScreen) | AlphaScreen GST-E1A/His-CtBP binding, 1536-well; stronger effect = lower value; control for the full effect not named in the record | activity change, % (test concentration not listed) | 340,000 tested, 0.49% active | AID 651724, 2012; in the data active means activity change below about -65%; inconclusive means about -30% to -65%; inactive means above about -30%; note: % is set by controls: 0 for no effect and ±100 for the full control effect; compound concentration not given in the record
#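 Steps: dispense buffer (Tris pH 8.0, NaCl 300 mM, TCEP 1 mM, BSA, Tween 20); add 5X protein mix (GST-E1A, His-CtBP, 125 nM each); pin 23 nL compound; 2 h at 37 °C, dark; add 5X beads (50 ug/mL); 1 h; read.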
# An asterisk follows results filed as active; ? = inconclusive; / = not tested or not shown; [ ] = another dose, or the depositor's remark.
# Values run as follows: TRPML1 ag, D2 potentiator, Six1-Eya2 blk, D2 ag, PINK1 modulator, CtBP-E1A blk
CC(OC(=O)c1cnc2ccccc2n1)c1ccccc1Cl (configuration not stated)
    0.3, 7.9, 9.4, 6.9, 1.2%, 0.0
CC(C)N(Cc1ccccc1)C(=O)COC(=O)c1cc[n+]([O-])cc1
    -0.8, 8.7, 6.2, 1.2, 2.8%, /
O=C(NNC(=O)c1ccc2ccccc2c1O)Nc1ccc(F)cc1
    2.2, -35.4, -8.9, 3.0, -1.1%, -1.3
C/C(=N\NC(=O)c1ccc(N2CCCC2=O)cc1)c1ccccc1
    -0.2, -2.7, 4.6, 0.4, 1.9%, 6.7
Cc1c(Cc2ccccc2)c(=O)oc2cc(OCC(=O)NCC3CCC(C(=O)O)CC3)ccc12 (configuration not stated)
    /, -21.2, -2.6, -3.8, 0.1%, -7.4
COc1ccc(OC)c(NC(=O)C(CC(=O)O)Cc2ccc(Cl)cc2)c1 (configuration not stated)
    -0.8, -14.3, 9.6, -1.0, 0.9%, 1.6
CCCNC(=O)C1(C)CCCN(Cc2cccc(C(F)(F)F)c2)C1 (configuration not stated)
    -0.3, -5.7, 0.1, -4.1, -0.7%, 1.3
COc1cc(/C=N/n2c(-c3ccccc3)n[nH]c2=S)cc(OC)c1O
    1.4, 1.6, -7.4, 4.3, 1.7%, -6.2
CCc1nc2ccc(C(=O)Nc3cc(-c4ccccc4)ccc3OC)cn2c1N(CC)CC(=O)N(C)C
    -1.0, -9.0, -9.5, 2.5, 1.3%, -19.2
CCc1ccc(CC)c(S(=O)(=O)Nc2ccc(C(=O)O)c(O)c2)c1
    -0.2, -4.1, 5.5, 2.4, 0.2%, -4.7
COc1cc(C(=O)N2CCc3ccccc32)ccc1OCc1c(C)noc1C
    0.8, -0.5, -2.8, 0.6, 1.3%, 4.3
COC(=O)CCN(C(=O)c1ccc([N+](=O)[O-])cc1)c1ccccn1
    -0.5, -2.8, 1.0, -0.1, -2.8%, 3.0
CN(Cc1ccco1)C(=O)[C@H](Cc1ccccc1)NC(=O)CC[C@H]1O[C@@H](n2ccc(=O)[nH]c2=O)[C@H](O)[C@@H]1O
    0.2, -5.7, 0.2, -5.3, 4.0%, -1.6
O=c1nc2ccc(Cl)cn2c2ccc(S(=O)(=O)N3CCOCC3)cc12
    0.0, -2.5, 4.6, 2.1, 9.4%, -6.5
O=C1CCN(S(=O)(=O)c2ccc(Cl)cc2)CC1
    0.6, 6.4, 6.0, 2.6, 0.4%, 10.7
C=CCn1c(C)csc1=Nc1ccc(C(=O)O)cc1
    -0.6, -1.1, 0.8, -1.6, 2.1%, 4.3
CCOc1ccc2c(c1)c(N=NC(N)=S)c(O)n2C
    0.3, -3.2, ?, -2.9, 1.1%, ?
COc1ccc(NS(=O)(=O)c2cc(C(=O)Nc3ccccc3C(=O)O)ccc2C)cc1
    2.7, 11.1, -19.5, 7.5, 0.4%, ?
COc1ccc(OC)c2sc(NC(=O)C3CC3)nc12
    -0.4, -4.7, -1.7, -3.9, 2.8%, -5.2
CC(C)c1nnc(SCC(=O)NC2CCCCC2)n1C
    0.6, -3.9, 1.3, 7.3, 3.1%, 8.1
COc1ccccc1NC(=O)C(C)Sc1nc(-c2ccccc2)cn1N (configuration not stated)
    -0.7, -1.4, -19.4, -4.1, -1.4%, /
O=C(N=Nc1c(O)n(C2OC(=O)c3ccccc32)c2ccccc12)c1ccc(O)cc1 (configuration not stated)
    0.1, -15.5, 26.9, -3.1, 7.9%, 1.3
CSc1ccccc1NC(=O)c1c(Br)cnn1C
    1.3, -6.0, 2.0, -0.4, 2.5%, 9.6
CCOC(=O)C1CCN(C(=O)C2CCN(S(=O)(=O)c3ccc4c(c3)CC(C)N4C(C)=O)CC2)CC1 (configuration not stated)
    0.9, -10.7, -2.6, -4.2, -0.1%, -8.0
Cc1noc(C(=O)Nc2ccc(F)c(Cl)c2)c1Cl
    0.6, -8.7, 1.1, 1.4, 3.2%, 6.5
CCN(CC)C(=O)C(C)N(C#N)c1nc(C)cc(C)n1 (configuration not stated)
    0.3, 1.0, 10.4, -2.8, 1.1%, -5.0
N#CCSc1nnc(Cc2cccs2)n1C1CCCCC1
    0.7, -1.8, 2.2, 0.1, -6.0%, -8.5
COc1ccccc1NS(=O)(=O)c1cc(NC(=O)/C=C/c2cccs2)ccc1N1CCOCC1
    1.3, -2.4, -11.3, 5.0, 1.0%, -25.1
COc1ccc(NC(=O)COC(=O)c2ccc3ccccc3n2)c(OC)c1
    2.8, -8.9, -1.1, -2.4, 5.7%, 0.8
COc1cccc(C(=O)NC2CCN(CC(=O)Nc3cccc(C)c3C)CC2)c1
    3.7, -1.8, 5.1, -1.6, -0.4%, /
CC(Oc1ccc2ccc(=O)oc2c1)C(=O)N1CCOCC1 (configuration not stated)
    -0.1, -2.6, 4.2, -1.3, -0.3%, 3.1
CCn1cc(CN2CCCC(C(=O)c3ccc(-c4ccccc4)cc3)C2)cn1 (configuration not stated)
    -0.1, -11.0, -13.1, 1.5, 1.6%, -8.0
CCCc1nnc(NC(=O)CCCC(=O)O)s1
    0.6, -4.3, -0.7, -1.0, -0.7%, -0.3
CC(c1ccco1)N(C(=O)c1ccccc1F)c1ccccn1 (configuration not stated)
    -0.5, -1.1, 1.0, 0.5, -0.5%, -5.7
Cc1ccc(NC(=S)NC(=O)c2cccs2)cc1F
    0.7, -2.6, 0.5, -0.8, 17.1%, -2.0
COc1ccc(-n2ncc3c2CC(C)(C)CC3NC(=O)CCN2CCCCC2=O)cc1 (configuration not stated)
    0.2, -8.1, 5.3, -0.1, 1.5%, 5.7
Cc1cc2nc(C3CCCN(C(=O)NCc4ccccc4)C3)[nH]c2cc1C (configuration not stated)
    -0.8, -11.3, -3.0, -4.6, -0.2%, 3.4
Cc1ccc(CN2C3=NCCCN3c3ccccc32)cc1
    0.1, -4.8, 9.1, -1.4, -2.1%, -2.7
CCN(c1ccccc1)S(=O)(=O)c1ccc(Cl)c(C(=O)OCC(=O)NC(=O)C(C)C)c1
    2.2, -3.0, 3.9, -0.8, 2.3%, /
CN(CCNC(=O)c1cc2c(=O)n(C)c3ccccc3c2n1C)Cc1ccccc1
    -0.3, -7.7, -17.2, 1.6, 9.9%, -10.5
COC(=O)c1cccc(N(C(=O)c2cnccn2)C(C(=O)NC2CCCCC2)c2cn(C)nc2C)c1 (configuration not stated)
    -0.5, 0.5, 23.1, 1.0, 0.7%[38.3 µM], 45.2
COc1ccc(C(O)c2nc(-c3cc4ccccc4o3)cs2)cc1 (configuration not stated)
    -0.1, -3.6, 8.4, 5.7, 4.4%, 3.7
CC1CC2(CCCCC2)N2C(=O)C(=O)c3cccc1c32 (configuration not stated)
    6.0, 5.8, -9.0, -1.7, 2.9%[38.3 µM], -1.4
O=C(NCc1ccccc1)c1ccc(/C=N/O)nc1
    -0.5, 11.2, ?, 0.3, -0.5%[38.3 µM], -20.1
COc1ccccc1N1CCN(C2CCN(S(=O)(=O)c3ccc(NC(C)=O)cc3)CC2)CC1
    0.7, -15.7, 5.9, ?, -0.2%, 3.2
O=C(Oc1c(Br)cc([N+](=O)[O-])cc1Br)c1cccnc1
    -0.2, -18.3, -0.3, -8.8, ?, -4.6
O=C1CCCN2N=C(SCC(=O)Nc3ccc(Br)cc3)SC2=N1
    -0.7, 0.2, 8.3, -1.1, 1.4%, 2.0
COc1cc(C2CC(=O)c3cnc(NC(=O)c4ccco4)nc3C2)cc(OC)c1OC (configuration not stated)
    0.3, -4.2, -3.5, -2.7, 0.0%, 2.2
COC(=O)c1ccc(CSc2ncnc3c2oc2ccccc23)o1
    2.1, 1.5, 2.6, -1.5, ?, 9.4
COc1cc(OC)nc(NC(=O)CN2CCN(c3ccc(F)cc3)CC2)n1
    -0.2, -14.3, -1.5, -1.4, 3.4%[38.3 µM], 3.2
CCn1cc(C(=O)OCC(=O)Nc2c(C)cccc2C)c(=O)c2ccc(C)nc21
    -0.4, -5.6, 5.8, -2.1, 0.6%, 6.4
O=C1CCC(C(=O)N(CCO)Cc2ccccc2)CN1CCCN1CCOCC1 (configuration not stated)
    0.0, -11.4, 3.2, 1.6, -0.8%, -7.9
O=C(CSc1ccc(-c2ccccn2)nn1)NCc1ccc(F)cc1
    1.6, 2.3, -81.0*, -1.0, 0.0%, -65.8*
COc1ccccc1N(C)S(=O)(=O)c1ccc(C(=O)OCC(=O)N(C)c2ccccc2)cc1
    2.5, -11.9, -4.6, 4.3, 2.9%, -0.2
O=C(NCc1ccco1)c1ccc2c(c1)N(Cc1ccccc1)CCS2
    0.7, -16.5, -13.5, -1.8, -0.2%, /
COc1ccc(C(=O)COc2ncnc3cc(Cl)ccc23)cc1
    7.8, 0.8, 2.6, 1.3, 1.7%, 11.5
COc1ccc(OCC(=O)Nc2cccc3cccnc23)cc1
    3.1, -12.1, 11.3, 0.4, /, 8.2
CCOc1c(Br)cc(C(=O)OCC(=O)N2CCc3ccccc3C2)cc1OC
    2.7, -11.4, -10.4, -10.3, 6.5%, -12.1
COc1cccc(NC(=O)N2C3CCCC2CC(NC(=O)C(C)(C)C)C3)c1 (configuration not stated)
    0.0, 2.2, 6.4, 2.3, 0.4%, 4.7
O=C(CCC1CCCCC1)Nc1c[nH]c(=O)[nH]c1=O
    -0.3, -6.2, -3.0, -1.0, 3.9%, 2.2

# Next structures follow:
# Values run as follows: TRPML1 ag, D2 potentiator, Six1-Eya2 blk, D2 ag, PINK1 modulator, CtBP-E1A blk
CC(C)c1nn(-c2cc(C(F)(F)F)ccn2)c(=O)o1
    1.0, -5.1, 3.7, -2.1, -0.8%, -12.4
CC(=O)Nc1ccc(-c2nn[nH]n2)cc1
    /, -9.3, 2.1, -4.7, 0.4%, -2.5
Cc1ccc(C)c2[nH]c(=O)c(CN(CCCN(C)C)C(=O)NCc3ccccc3)cc12
    -0.3, -10.1, -16.0, -6.4, -1.1%, -1.4
O=C1OC(c2ccccc2)C(O)=C1c1ccccc1 (configuration not stated)
    0.0, 7.6, 6.2, 0.1, 1.4%, -0.1
O=C(c1cccc(Cl)c1)N1CCN(c2ncccn2)CC1
    3.1, -0.7, 6.4, -15.3, -2.8%, 7.0
Cc1ccc(C2N(c3nccs3)C(=O)C3CCCN32)cc1 (configuration not stated)
    -0.4, 4.2, -1.3, -0.6, 2.9%, -2.2
CCOc1ccc(OCC)c(NC(=O)CN2CCN(c3cccc(C)c3)C(C)C2)c1 (configuration not stated)
    0.7, -4.3, -11.0, -1.4, -0.7%, -4.9

# Bioassay records as filed in PubChem BioAssay.
